Compound activity (PubChem BioAssay)
NPYLR7 agonist: agonists of mosquito NPYLR7 receptor, primary screen, cell-based, Aedes aegypti, calcium fluorescence, mosquito biting behavior; Aedes aegypti neuropeptide Y-like receptor 7 (NPYLR7); HEK293T NPYLR7/Galpha15, GCaMP6s calcium fluorescence; activation, % at 10 µM; actives 0.15% (n = 270,000); in the data active = activation above about 40%;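 also: 0% = vehicle and 100% = reference agonist at the receptor; some compounds past the cut are filed as inactive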
NPYLR7 agonist max-min: recorded beside NPYLR7 agonist, whose call it bears; activation, %; measured here: Max-Min RFU normalised activation; some inactives read as strong as hits;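 span of the calcium signal over five minutes; 0% = vehicle and 100% = native peptide agonist; compound fluorescence can raise it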
* = called active by the depositor; & = joins results of further samples.

The line under a structure holds: NPYLR7 agonist	NPYLR7 agonist max-min
1: CSc1ccc(NC(=O)C(NC(C)=O)C(C)C)cc1 (centres undefined)
    8	4
2: CC(OC(=O)C1CC(=O)N(CC2CC2)C1)c1cc(F)ccc1F (centres undefined)
    3	0
3: Cc1cccc(Cn2c(CCNC(=O)C(C)(C)C)nc3ccccc32)c1
    -15	-17
4: CCCCC(=O)N(C)c1c(C)nc2ccc(C(=O)N(C)CCCN(C)C)cn12
    6	-6
5: O=C(CN1CCOCC1)NC1c2ccccc2CSc2ccccc21 (centres undefined)
    1	-1
6: CC(C)(C)C1CCc2c(sc(NC(=O)c3cnccn3)c2C#N)C1 (centres undefined)
    4	0
7: CCn1cc(C(CC(=O)NC2CCCCC2)c2cccc(C)c2)c2ccccc21 (centres undefined)
    10	10
8: N#CC1C(=N)SC(=N)C(C#N)C1c1ccccc1I (centres undefined)
    36	30
9: Cc1nc(C2(NC(=O)CSCc3ccc(Cl)s3)CCCCCC2)no1
    -1	-1
10: CCOC(=O)c1[nH]ncc1CN1CCN(Cc2ccc(OC)cc2F)C(CCO)C1 (centres undefined)
    15	5
11: Cc1ccnc2c(NCN3C(=O)C4C5C=CC(C5)C4C3=O)cccc12 (centres undefined)
    1	0
12: CCN1CCCCC1C(=O)Nc1ccc(Br)cc1 (centres undefined)
    3	1
13: C=CCOC1C[C@](OCc2ccccc2C#N)(C(=O)NCC2CC2)C[C@H]2OC(C)(C)O[C@@H]12 (some centres undefined)
    3	8
14: CCCC1C(=O)N(c2nc(C)cc(C)n2)N=C1C (centres undefined)
    11	0
15: Fc1ccccc1Nc1nc2ccccc2n2cnnc12
    6	3
16: Cc1c(C(=O)NN=Cc2cc3c(cc2[N+](=O)[O-])OCO3)sc(N)c1C#N
    -12	-14
17: COc1cccc(CNC(=O)CCC2CCCN(C(=O)CCc3c(C)noc3C)C2)c1 (centres undefined)
    4	7
18: O=C(c1ccccc1C1CCNC1)N1CCC(Nc2ccccn2)CC1 (centres undefined)
    2	-4
19: CN1CCN(N=Cc2cc(Br)c(O)c(Br)c2)CC1
    -2	-4
20: Cc1nc(SCC(=O)NN2C(=O)NC3(CCC(C)CC3)C2=O)n(CC(C)C)c1C (centres undefined)
    12	16
21: Cc1nc2c(ccc3nc(NC(=O)c4ccc(N5CCCCC5)c([N+](=O)[O-])c4)sc32)s1
    -2	-4
22: Cc1ccc(NC2SC(=O)N(CC(C)C)C2=O)cc1 (centres undefined)
    15	13
23: COc1ccc(S(=O)(=O)Oc2ccc(CN(Cc3ccco3)C(=O)NC(C)(C)C)cc2)cc1
    8	10
24: CC(=CC(=O)C(F)(F)F)N1CCC(C(N)=O)CC1
    6	3
25: Cc1nc(-c2ccc(Br)cc2Cl)nn1CN1CCOCC1C (centres undefined)
    1	5
26: Cc1cc(C)nc(SCCCn2c(N(C)Cc3ccccc3)nc3c2c(=O)[nH]c(=O)n3C)n1
    10	3
27: Cc1csc(C(C)(C)NC(=O)Nc2cnn(-c3ccccc3)c2)n1
    17	10
28: COC(=O)C1CCN(C(c2ccc(OC)cc2)C2Sc3nc(C)nn3C2=O)CC1 (centres undefined)
    1	-4
29: CCCOCCn1cc(C2CC=CCC2)nn1 (centres undefined)
    4	2
30: COCCn1c(=C(C#N)C(=O)C(C)(C)C)sc(=Cc2ccc(C)s2)c1=O
    0	-4

Given with each value named: entries from further up.
13) C=CCOC1C[C@](OCc2ccccc2C#N)(C(=O)NCC2CC2)C[C@H]2OC(C)(C)O[C@@H]12 (some centres undefined)
  NPYLR7 agonist: 3; NPYLR7 agonist max-min: 8

14) CCCC1C(=O)N(c2nc(C)cc(C)n2)N=C1C (centres undefined)
  NPYLR7 agonist: 11; NPYLR7 agonist max-min: 0

15) Fc1ccccc1Nc1nc2ccccc2n2cnnc12
  NPYLR7 agonist: 6; NPYLR7 agonist max-min: 3

16) Cc1c(C(=O)NN=Cc2cc3c(cc2[N+](=O)[O-])OCO3)sc(N)c1C#N
  NPYLR7 agonist: -12; NPYLR7 agonist max-min: -14

Next part:
The line under a structure holds: NPYLR7 agonist	NPYLR7 agonist max-min
31: CCCCN(C(=O)CCCn1ccnc1)C1CCS(=O)(=O)C1 (centres undefined)
    4	2
32: C=c1ccccc1=C1NN=C(SCc2ccc(C#N)cc2)O1
    5	8
33: CC(C)=CCN1CCN(Cc2cccc(-n3cccn3)c2)CC1CCO (centres undefined)
    8	8
34: Cc1cc(C)c2c(c1C(=O)N1CCC3(CC1)C(=O)NCN3c1ccccc1)CC(C)(C)C2=O
    -9	-12
35: N#Cc1ncn(Cn2nnc3ccccc3c2=O)n1
    8	5
36: N#Cc1c(Cl)nc(N)n1-c1ccccc1
    5	-12
37: COc1ccc(CCN(C)C(=O)c2csc(CSc3nnc(Cc4ccccc4)n3-c3ccc(Cl)c(Cl)c3)n2)cc1OC
    -3	6
38: O=C1CC(c2ccccc2)Sc2nc(-c3ccc([N+](=O)[O-])cc3)nn21 (centres undefined)
    1	9
39: Cn1ccnc1CN(Cc1ccsc1)CC1CCCO1 (centres undefined)
    7	2
40: O=C(O)c1nn(Cc2cc(=O)n3ccsc3n2)c(=O)c2ccccc12
    2	5
41: CCCCC(Nc1cc(C(F)(F)F)nc2ncnn12)C1CCC1 (centres undefined)
    3	2
42: O=C(Cc1ccc(N2CCCC2=O)cc1)NCc1ccc(F)cc1
    2	0
43: CCc1cccc(N2C(=O)CSC2c2cccc(NC(=O)Cc3ccc(OC)cc3)c2)c1 (centres undefined)
    5	9
44: CC(C)CN(CC(=O)N1CCc2sccc2C1c1ccc(Cl)cc1Cl)C(=O)/C=C/c1ccccc1 (centres undefined)
    10	8
45: O=C(Nc1ccc(N2CCN(C(=O)c3cc(F)ccc3Cl)CC2)nc1)c1ccco1
    4	-1
46: Cc1noc(C)c1C1CCCN1C(=O)c1cc(-c2cccn2C)n[nH]1 (centres undefined)
    -1	3
47: N#Cc1c(N(CCO)CCO)nc(N)c2c(N)nc3c(c12)CC(=O)N3Cc1cccs1
    9	9
48: C[C@H](Nc1nccnc1-c1ccccc1Oc1ccccc1)c1ccccc1
    -4	-9
49: Cc1cccc(-n2[nH]c(-c3ccccc3F)c(-c3ccc(NC(=O)c4cccc(C(F)(F)F)c4)cc3)c2=O)c1
    31	39
50: C=CCN1CC(O)CN(C(=O)c2ccc(Cl)cc2)CC1=O (centres undefined)
    0	12
51: Cc1cccc2[nH]c(C3CCN(C(=O)C4CCCN(CC(N)=O)C4)CC3)nc12 (centres undefined)
    14	9
52: CCN(C)c1cc(Oc2ccc(F)cc2C)ncn1
    -9	-7
53: C/C=C/COc1nc2c(c(=O)n(C)c(=O)n2C)n1C
    3	5
54: Cc1ccc(N=Cc2nc(-c3ccc(Br)cc3)oc2O)c(Br)c1
    -2	-7
55: Cc1cc2ncc(C(=O)N3CCCC(Nc4ccccc4)C3)c(=O)n2[nH]1 (centres undefined)
    11	9
56: CCN(C(=O)c1cc(S(=O)(=O)NC(C)(C)C)ccc1C)c1ccccc1C
    -2	-3
57: CCOC(=O)N1CCN(C(=O)c2cc(COc3cccc4cccnc34)on2)CC1
    -5	-7
58: CC12C=CC(C)(O1)C1C(=O)N(c3cc(C(F)(F)F)ccc3Cl)C(=O)C12 (centres undefined)
    24	6
59: CCCn1c(N)c(N(CCOC)C(=O)CCCCl)c(=O)[nH]c1=O
    -1	-6
60: CC(=O)Nc1nc(-c2cc3cc(Br)ccc3oc2=O)cs1
    -1	-4
61: CC(=O)N1CCN(CC(=O)N2N=C(c3ccc(F)cc3)CC2c2ccc3c(c2)OCO3)CC1 (centres undefined)
    -2	8
62: Cc1ccc(SC(C)C(=O)NCc2cnn3ccccc23)cc1 (centres undefined)
    -5	-7
63: O=C(O)CCC(=O)c1ccc(-c2cnc3ccccc3c2)cc1
    6	0
64: CC(C)NC(=O)CNC(=O)c1cc(-c2ccccc2)nc2ccccc12
    17	8
65: O=C(N=Nc1c(O)[nH]c2ccc(Cl)cc12)c1ccc(NC(=O)c2ccccc2)cc1
    1	-1
66: O=C1c2cccc3c([N+](=O)[O-])ccc(c23)C(=O)N1c1ccc(Sc2ccc([N+](=O)[O-])cc2)cc1
    0	0
67: CC(c1ccccc1)N1C(=O)NC(NC(=O)C2CC2)(C(F)(F)F)C1=O (centres undefined)
    14	8
68: Nc1nc(NCCCN2CCOCC2)nc(NC2CCCCC2)c1[N+](=O)[O-]
    3	3
69: Cc1ccn2c(=O)cc(CN3CCOC(CCCC(C)C)C3)nc2c1 (centres undefined)
    10	11
70: CC(C)Cc1c(-c2cccc3ncccc23)noc1N
    -1	-1
71: COc1ccc(C(=O)NC(C(=O)NN2CCCCC2=O)C(C)C)cc1 (centres undefined)
    3	3
72: Cn1c(=NC(=O)C2=COCCO2)sc2cccc(F)c21
    0	23
73: Cc1ccc(NC(=O)c2ccc(CSc3nc(Cl)cc(N4CCC5(CC4)OCCO5)n3)cc2)cc1
    15	18
74: NC(=O)CSc1nnc2scc(-c3ccccc3)n12
    9	13
75: Cc1nsc(NC(=O)NC2CCCOC2)n1 (centres undefined)
    -2	-6
76: CC(C)(C)c1cc(NC(=O)c2sc3ccccc3c2Cl)n(-c2ccccc2Cl)n1
    -18	-16
77: CCCOC(=O)C1=C(C)N(C)C(=O)NC1c1cc2c(cc1Br)OCO2 (centres undefined)
    4	8
78: Cc1cccc(-n2nnc3c(=O)n(CC(=O)Nc4ccc(C(N)=O)cc4)cnc32)c1
    -1	-6
79: COc1cccc(Nc2nccc3c2cc(-c2ccc(N(C)C)cc2)n3C)c1
    -3	-4
80: Cc1ccc2c(c1)CCN1C(=O)CN(C(=S)Nc3ccc(Br)cc3)CC21 (centres undefined)
    -1	13
81: O=C(CCc1csc(NC(=O)c2ccc[nH]c2=O)n1)NCCC1=CCCCC1
    -12	-18
82: CC(C)CCSc1nc2c(c(=O)[nH]c(=O)n2C)n1Cc1ccccc1
    -1	0
83: COCCCN(Cc1c(-c2ccc(F)cc2)noc1N1CCOCC1)CC(O)Cc1ccccc1 (centres undefined)
    -2	7
84: CCOC(=O)C1CCN(C(=O)c2ccc(Nc3c(Oc4ccccc4)cnn(C)c3=O)cc2)CC1
    9	7
85: COc1cc(Cl)c(C2c3cc4c(cc3OC(=N)C2C#N)OCO4)cc1OC (centres undefined)
    4	3
86: CC(=O)Nc1ccc(C(=O)N2CCN(Cc3cc(=O)c(OCc4ccc(-c5ccccc5C#N)cc4)co3)CC2)cc1
    24	18
87: CC(C)c1ccc(CC(=O)N2CCC2(C)C(=O)Nc2ccccc2F)cc1 (centres undefined)
    13	13
88: Cc1cccc(CN2N=C(c3ccccc3)Cn3c2nc2c3c(=O)n(C)c(=O)n2C)c1
    6	5
89: COCC(=O)N1CCN2C(=O)c3ccc(Cl)cc3NC(=O)[C@H]2C1
    -13	-19
90: COCC1CCCCN1Cc1cnc(S(=O)(=O)Cc2ccccc2)n1CC(C)C (centres undefined)
    15	3

(further entries)
The line under a structure holds: NPYLR7 agonist	NPYLR7 agonist max-min
91: Cn1nccc1C(=O)Nc1ccc(Cl)cc1Cl
    -8	-12
92: Cc1csc(SCc2cc(=O)c(OC(=O)c3ccc(C)c(C)c3)co2)n1
    -2	-2
93: CC(=O)c1c(C)[nH]c(C(=O)CNc2ccc(F)c(C#N)c2)c1C
    2	-8
94: Cc1nc2c(c(NCCC(=O)N3CCC(C)CC3)n1)CCNC2
    10	1
95: COc1nc(C(=O)N(CCC#N)CC2CC2)cc2ccccc12
    8	6
96: O=C(CCc1ccccc1)N1CCN(c2nccc(-c3ccc(N4CCOCC4)cc3)n2)CC1
    24	26
97: COc1cc(OC)c2c(-c3ccccc3)cc(=S)[nH]c2c1
    5&1	6&8
98: COc1cccc(-c2cc(C(=O)NCc3ccco3)nc3cc(C(C)(C)C)nn23)c1
    7	14
99: Cc1nccn1-c1ncccc1CNC(=O)Nc1ccc(F)c(F)c1
    2	3
100: COC(=O)c1ccc(S(=O)(=O)NC2c3ccccc3CC2O)c(C)c1 (centres undefined)
    -1	0
101: COc1cc(C(=O)N2CCC(n3nc(C(C)C)cc3C(C)C)CC2)ccc1F
    23	15
102: Cc1ncsc1C(=O)NC1CC(C)(C)Cc2c1cnn2-c1cccc(F)c1 (centres undefined)
    0	-6
103: CNC(=O)COC(=O)c1cccnc1Nc1ccccc1F
    5	3
104: Cc1cc(NC(=O)C2Cc3ccccc3O2)n(-c2cccc(Br)c2)n1 (centres undefined)
    6	1
105: O=C(C1CCCCn2nnnc21)N1CCC2(CCCO2)CC1 (centres undefined)
    25	10
106: O=C(CC1COCCN1)NCc1ccc2c(c1)OCO2 (centres undefined)
    -2	-2
107: Nc1n[nH]c(-c2ccc(Br)cc2)n1
    5&11	5&8
108: CN(CCc1ccccc1)c1ccc2c(-c3ccccn3)noc2n1
    -2	-3
109: CCS(=O)(=O)c1ccc2c(c1)N(c1ccc(NC(C)=O)cc1)C(=O)C(C)O2 (centres undefined)
    9	5
110: O=S(=O)(Nc1ccccc1Cc1ccccc1)c1ccccc1F
    -1	-1
111: CN(Cc1ccc2nsnc2c1)C(=O)[C@H]1CCCC[C@H]1C(=O)NC(C)(C)C
    -1	-6
112: CC(Oc1ccc(F)cc1)C(=O)Nc1nc(-c2ccccn2)cs1 (centres undefined)
    8	7
113: CC1CC(OC(=O)C2CCN(S(=O)(=O)c3ccc(F)cc3)CC2)C(=O)O1 (centres undefined)
    0	-1

Taken from above:
compound 98 @ NPYLR7 agonist max-min: 14
compound 100 @ NPYLR7 agonist: -1
compound 109 @ NPYLR7 agonist: 9
compound 94 @ NPYLR7 agonist: 10

Part of the list above, with bars between the fields:
cpd | SMILES | NPYLR7 agonist | NPYLR7 agonist max-min
70 | CC(C)Cc1c(-c2cccc3ncccc23)noc1N | -1 | -1
71 | COc1ccc(C(=O)NC(C(=O)NN2CCCCC2=O)C(C)C)cc1 (centres undefined) | 3 | 3
72 | Cn1c(=NC(=O)C2=COCCO2)sc2cccc(F)c21 | 0 | 23
73 | Cc1ccc(NC(=O)c2ccc(CSc3nc(Cl)cc(N4CCC5(CC4)OCCO5)n3)cc2)cc1 | 15 | 18

Only part of the results is shown; rates above refer to the full screens.
